LASV entry inh: blocks Lassa virus binding to or entry into cells; Lassa virus pseudotype entry inhibition, cell reporter; control for the full effect not named in the record; 300,000 compounds, 1.2% hits; Potency, µM (doses to about 37.9 µM), for inactives: at the highest dose activity change, negative = inhibition, hits mostly inhibitors; active means well fitted inhibition curve with a large enough effect; inconclusive means small, poorly fitted or top-dose-only effect, or effect the other way; inactive means flat fitted curve, though single readings scatter; tested in HEK293 cells; also: % is scaled to controls: 0 for no effect and ±100 for the full control effect; nearly all actives have a fitted effect of over 50% in size; luciferase read-out
SARS PLP yeast: blocks SARS-CoV papain-like protease in a yeast assay. S. cerevisiae expressing SARS-CoV PLpro, growth rescue; control for the full effect not named in the record. Potency, µM (doses to about 32.9 µM), for the others: top-dose activity, positive = growth rescue. 330,000 compounds, 0.19% hits. AID 485353; also: 0% is about no effect; nearly all actives have a fitted effect of over 55% in size; growth read by luminescence after 48 h
2A StopGo: lowers the luciferase signal of an FMDV 2A StopGo reporter | 410,000 compounds, 1.2% hits | human cells with a luciferase reporter of 2A StopGo recoding; control for the full effect not named in the record | AID 1159524 | Potency, µM (titrated, usually from 57.9 µM), for the others: at the top dose signal change, negative = less light; active = well fitted falling curve with a large enough effect; inconclusive = small, poorly fitted or top-dose-only effect; inactive = no such curve, though single readings can be large or run the other way; tested in HEK293T cells; also: % is scaled to controls: 0 for no effect and ±100 for the full control effect; nearly all actives have a fitted effect of over 45% in size; luciferase light after 4 h
Marburg entry inh: blocks Marburg virus binding to or entry into cells; Marburg virus pseudotyped entry inhibition, cell reporter; control for the full effect not named in the record; about a third of the inactives were read at about 46 µM; Potency, µM (highest dose often 37.8 µM), for inactives: at the top dose activity change, negative = inhibition, hits mostly inhibitors; 300,000 compounds, 1.8% hits; AID 540276; active = well fitted inhibition curve with a large enough effect; inconclusive = small, poorly fitted or top-dose-only effect, or effect the other way; inactive = flat fitted curve, though single readings scatter; tested in HEK293 cells; about a fifth of its hits are not listed in these tables; also: % is scaled to controls: 0 for no effect and ±100 for the full control effect; luciferase read-out
Cruzain inh noDet: blocks cruzain activity in detergent-free assay; P25779; purified cruzain, Z-FR-AMC fluorescence, no detergent; Potency, µM, for inactives: max response, negative = inhibition, usual class: inhibitors; 200,000 compounds, 2.3% hits; AID 1476; active = well fitted curve in the direction sought with a large enough effect; inconclusive = small, poorly fitted or top-dose-only effect, or another doubt; inactive = no such curve, though single readings can be large; an effect the other way counts as inactive or inconclusive;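 also: plate controls were enzyme without inhibitor for no effect and buffer without enzyme for full effect; nearly all actives have a fitted effect of over 40% in size; top concentration of the series not given in the record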
Target sequence (P25779 123-467 limits assumed): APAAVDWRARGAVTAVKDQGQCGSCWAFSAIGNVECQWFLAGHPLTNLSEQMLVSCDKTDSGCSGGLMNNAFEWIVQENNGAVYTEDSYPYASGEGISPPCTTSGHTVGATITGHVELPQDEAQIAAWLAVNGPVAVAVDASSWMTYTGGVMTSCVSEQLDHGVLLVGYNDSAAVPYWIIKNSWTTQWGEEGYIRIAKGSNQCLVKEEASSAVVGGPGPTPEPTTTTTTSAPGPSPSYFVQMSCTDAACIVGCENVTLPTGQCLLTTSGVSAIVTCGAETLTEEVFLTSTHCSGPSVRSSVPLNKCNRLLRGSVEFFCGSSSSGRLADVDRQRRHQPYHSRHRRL
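Purified cruzain at 1.5 nM, pre-incubated 15 min with compound at room temperature in 100 mM sodium acetate pH 5.5, 5 mM DTT, 0.00005% Triton X-100. Reaction started with 2 uM Z-FR-AMC; AMC fluorescence increase over 60 s gives rate.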
RE007 growth inh: less growth of the S. pombe RE007 Vpr strain; S. pombe RE007 Vpr strain, BacTiter-Glo ATP luminescence, 24 h; control for the full effect not named in the record; Potency, µM (titrated, usually from 92.2 µM), for inactives: top-dose activity change, negative = less growth; 360,000 compounds, 0.21% hits; active = well fitted falling curve with a large enough effect; inconclusive = small, poorly fitted or top-dose-only effect; inactive = no such curve, though single readings can be large or run the other way;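 also: % is scaled to controls: 0 for no effect and ±100 for the full control effect; nearly all actives have a fitted effect of over 50% in size; the assay follows cell death caused by Vpr and the record does not say whether a fall means rescue or toxicity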
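Fission yeast strain RE007, carrying one chromosomally integrated HIV-1 vpr copy, was seeded at OD 0.01 in PMG+AL medium with 23 nL pinned compound. After 24 h at 30 °C and 99% humidity, viability was read by BacTiter-Glo luminescence.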
NS1 inh: blocks influenza NS1 protein function | S. cerevisiae slowed by influenza A NS1, growth recovery by OD600 | Potency, µM (series often up to 46.1 µM), without a hit: at the top dose activity, positive = more growth | 270,000 compounds, 0.4% hits | AID 2326; also: actives are rising curves; nearly all actives have a fitted effect of over 50% in size
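Growth recovery, yeast-based: influenza A NS1 expressed in S. cerevisiae causes slow growth, and suppressors are detected by OD600. The parent strain without NS1 is used as positive control.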
Cruzain inh Det: cruzain (T. cruzi) inhibition with detergent; P25779; purified cruzain, Z-FR-AMC fluorescence, 0.01% Triton; Potency, µM, for inactives: max response, negative = inhibition, hits mostly inhibitors; 200,000 compounds, 0.43% hits; active = well fitted curve in the direction sought with a large enough effect; inconclusive = small, poorly fitted or top-dose-only effect, or another doubt; inactive = no such curve, though single readings can be large; an effect the other way counts as inactive or inconclusive;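 also: plate controls were neutral wells for no effect and buffer without enzyme for full effect; nearly all actives have a fitted effect of over 40% in size; top concentration of the series not given in the record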
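Cruzain (1.5 nM) preincubated 15 min at RT with compound in 100 mM sodium acetate pH 5.5, 5 mM DTT, 0.01% Triton X-100. Reaction started with 2 uM Z-FR-AMC; AMC fluorescence (ex 360/em 450 nm) change over 60 s gave rate.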
* marks the source's active call; other numbers are inactive results; [ ] = dose if it differs, or a comment. Unless noted, calls follow the shape of the dose curve; as a rule, active means well fitted rising curve with a large enough effect; inconclusive means small, poorly fitted or top-dose-only effect; inactive means no such curve, though single readings can be large or run the other way. Potency is read from the fitted curve at half-maximal effect.

Screening CN(Cc1ccc(F)cc1)C(=O)c1ccc(NC(=O)CC2SC(N3CCCC3)=NC2=O)cc1 (stereo not given) returned LASV entry inh -11.6%, SARS PLP yeast 2.7%, 2A StopGo -0.6%, Marburg entry inh -15.1% and RE007 growth inh 0.6%.
COc1cc2c(c3oc(=O)cc(CC(=O)O)c13)CCC(C)(C)O2 was read as SARS PLP yeast 0.6%, 2A StopGo 5.1%, RE007 growth inh -1.4% and NS1 inh -9.3%.
Screening Cc1ccc(-c2csc(C(C#N)=C3CCCC3)n2)cc1 returned LASV entry inh inconclusive, SARS PLP yeast -1.0%, 2A StopGo 69.1%[activator], Marburg entry inh inconclusive, Cruzain inh noDet -16.9%, RE007 growth inh -2.9%, NS1 inh -9.5% and Cruzain inh Det -2.7%.
COc1cc(/C=C2\SC(N)=NC2=O)cc(Br)c1O was read as SARS PLP yeast -4.2%, 2A StopGo 4.0%, RE007 growth inh 4.7% and NS1 inh -10.6%.
For COc1ccc(CNC(=O)C2CC=CCC2C(=O)O)cc1OC (stereo not given) the results were LASV entry inh -11.6%, SARS PLP yeast 1.6%, 2A StopGo -20.8%, Marburg entry inh 22.6%[46.1 µM], Cruzain inh noDet -4.8%, RE007 growth inh 2.0%, NS1 inh -7.4% and Cruzain inh Det 1.6%.
For O=C(NCc1ccc2c(c1)OCO2)Nc1ccc2ccccc2c1 the results were LASV entry inh 1.8%, SARS PLP yeast -0.8%, 2A StopGo 6.2%, Marburg entry inh 3.7%, RE007 growth inh 1.0% and NS1 inh -5.1%.
`Cc1ccc(OCC(=O)NC(=S)Nc2ccccn2)c(Br)c1` gave LASV entry inh inconclusive, SARS PLP yeast inconclusive, 2A StopGo 15.8µM*, Marburg entry inh inconclusive, RE007 growth inh -18.8% and NS1 inh -0.2%.
Screening CSc1nc(N2CCOCC2)cc(N2CCOCC2)n1 returned LASV entry inh -30.4%, SARS PLP yeast -0.1%, 2A StopGo 0.3%, Marburg entry inh 10.2%[46.1 µM] and RE007 growth inh -3.3%.
For COc1ccc(/C=C/C(=O)Nc2cc(C(F)(F)F)ccc2Cl)cc1OC the results were LASV entry inh 6.8%, SARS PLP yeast -4.5%, 2A StopGo -24.7%, Marburg entry inh -18.5%, Cruzain inh noDet inconclusive, RE007 growth inh 6.6%, NS1 inh 9.0% and Cruzain inh Det -12.7%.
Screening CC(C)Cc1nc2sc3c(=O)[nH]cnc3c2c2c1CCC2 returned LASV entry inh -8.1%, SARS PLP yeast -9.5%, 2A StopGo -12.7%, Marburg entry inh 3.7%, Cruzain inh noDet inconclusive, RE007 growth inh 3.8%, NS1 inh -1.6% and Cruzain inh Det 0.3%.
CC(C)Oc1ccc(CNC(=O)Cn2ncn3nc(-c4cccs4)cc3c2=O)cc1 was read as LASV entry inh 0.1%[46.1 µM], 2A StopGo -8.9%, Marburg entry inh 16.9%[46.1 µM], Cruzain inh noDet 5.8% and Cruzain inh Det -7.4%.
O=c1c2ccccc2cnn1Cc1n[nH]c(=S)n1-c1ccccc1F was read as LASV entry inh inconclusive, SARS PLP yeast -0.1%, 2A StopGo -5.1%, Marburg entry inh inconclusive, RE007 growth inh -1.1% and NS1 inh 0.8%.
For Cc1nnc(SCC(=O)Nc2nccs2)o1 the results were LASV entry inh 2.0%[46.1 µM], SARS PLP yeast 6.0%, 2A StopGo 18.5%, Marburg entry inh 31.4%[46.1 µM], RE007 growth inh -6.7% and NS1 inh -2.4%.
`CCOC(=O)CNC(=O)CSc1nnnn1-c1cc(C)ccc1C` gave LASV entry inh 4.2%, SARS PLP yeast 0.1%, 2A StopGo 8.5%, Marburg entry inh -0.8%, Cruzain inh noDet 21.5%, RE007 growth inh -5.0%, NS1 inh 1.7% and Cruzain inh Det 17.1%.
For COC(=O)c1ccccc1NC(=O)C1CCCN(c2nnc(C)c3c(C)n(-c4ccccc4)nc23)C1 (stereo not given) the results were LASV entry inh 1.7%[46.1 µM], 2A StopGo -11.6%, Cruzain inh noDet 8.5% and Cruzain inh Det -1.1%.
For Cc1ccc(NC(=O)CSc2nnc(N)s2)c([N+](=O)[O-])c1 the results were LASV entry inh 3.0%, SARS PLP yeast -1.3%, 2A StopGo 20.3%, Marburg entry inh 10.1%[46.1 µM] and RE007 growth inh 2.6%.
For COc1ccc(COC(=O)NNC(=O)c2ccccc2Cl)cc1 the results were LASV entry inh 3.98µM*, SARS PLP yeast 0.1%, 2A StopGo -11.2%, Marburg entry inh 0.8%, Cruzain inh noDet -22.2%, RE007 growth inh 2.5%, NS1 inh -1.5% and Cruzain inh Det inconclusive.
N#CCCn1cc(C(=O)Nc2ccc([N+](=O)[O-])cc2)c(-c2cccs2)n1 was read as LASV entry inh -16.6%[46.1 µM], SARS PLP yeast 11.7%, 2A StopGo -12.8%, Marburg entry inh 0.2%, Cruzain inh noDet 0.1%, RE007 growth inh -1.8%, NS1 inh 7.5% and Cruzain inh Det -12.0%.
`COc1ccc(C2c3[nH]c4ccccc4c3CCN2C(=O)CCC2CCCC2)cc1` (stereo not given) gave LASV entry inh inconclusive, 2A StopGo -21.5%, Cruzain inh noDet 15.8µM* and Cruzain inh Det 4.4%.
CCOC(=O)N1CCC(NC(=O)c2cccnc2SC)CC1 was read as LASV entry inh 17.3%, SARS PLP yeast -1.1%, 2A StopGo -13.2%, Marburg entry inh 23.0%, Cruzain inh noDet -1.1%, RE007 growth inh 2.6%, NS1 inh 4.2% and Cruzain inh Det 2.0%.
For Cc1cccc(C(=O)N/C(=C\c2ccco2)C(=O)N2CCCC2)c1 the results were SARS PLP yeast 6.8%, 2A StopGo 13.7%, RE007 growth inh 2.9% and NS1 inh -2.6%.
For Cc1ccc2nc(C(=O)N3CCc4c([nH]c5ccccc45)C3c3ccccn3)cn2c1 (stereo not given) the results were LASV entry inh -12.3%, SARS PLP yeast 0.9%, 2A StopGo -19.3%, Marburg entry inh -2.4%[46.1 µM], RE007 growth inh -12.4% and NS1 inh 0.2%.
CCOC(=O)C1C(=O)NC(c2ccccc2)=NC1c1ccc(C(C)C)cc1 (stereo not given) was read as LASV entry inh -38.2%, SARS PLP yeast -3.5%, 2A StopGo -15.7%, Marburg entry inh -5.0%, Cruzain inh noDet -7.2%, RE007 growth inh 2.8%, NS1 inh 4.3% and Cruzain inh Det 3.2%.
For CCOc1ccc(N(C(=O)c2ccc(OC)cc2)S(=O)(=O)c2ccc3c(c2)n(C)c(=O)n3C)cc1 the results were 2A StopGo -3.4%, Marburg entry inh inconclusive, Cruzain inh noDet inconclusive and Cruzain inh Det -3.5%.
`NC(=O)C1CCN(c2oc(-c3ccccc3)nc2S(=O)(=O)c2ccc(Br)cc2)CC1` gave LASV entry inh 2.8%, SARS PLP yeast -4.5%, 2A StopGo -13.0%, Marburg entry inh 17.9%, RE007 growth inh -6.9% and NS1 inh -2.6%.
For CC(=O)N1c2ccc(S(=O)(=O)NCCc3ccccc3)cc2CC1C (stereo not given) the results were SARS PLP yeast 2.9%, 2A StopGo 2.2%, RE007 growth inh 2.3% and NS1 inh inconclusive.
c1ccc(-c2csc3ncn4cnnc4c23)cc1 was read as LASV entry inh -3.8%, SARS PLP yeast 20.5%, 2A StopGo -0.8%, Marburg entry inh 2.5%, Cruzain inh noDet 0.1%, RE007 growth inh 15.0%, NS1 inh -35.7% and Cruzain inh Det 5.4%.
O=C(CCSCc1ccccc1Cl)N1CCN(c2ccc(F)cc2)CC1 was read as LASV entry inh 10.1%[46.1 µM], 2A StopGo 3.1%, Cruzain inh noDet 12.0% and Cruzain inh Det -0.2%.
`CCNC(=O)NC(=O)C(C)OC(=O)CCS(=O)(=O)c1ccc(C)cc1` (stereo not given) gave LASV entry inh 5.0%, SARS PLP yeast 0.0%, 2A StopGo -15.9%, Marburg entry inh -6.0% and RE007 growth inh 9.2%.
COc1cccc(-n2nnnc2SCC(=O)NCc2ccco2)c1 was read as LASV entry inh -2.4%, SARS PLP yeast -1.5%, 2A StopGo -0.2%, Marburg entry inh -2.7%[46.1 µM], Cruzain inh noDet -14.9%, RE007 growth inh 2.6%, NS1 inh 4.1% and Cruzain inh Det 5.5%.
`CCn1c(CC(=O)Nc2ccccc2)nnc1SCC(=O)Nc1nnc(C)s1` gave LASV entry inh 10.9%, SARS PLP yeast 0.2%, 2A StopGo 8.5%, Marburg entry inh -10.8%, RE007 growth inh -15.9% and NS1 inh -0.9%.
For COc1cccc(N2C(=O)C3CCCN3C2c2ccc(F)cc2)c1 (stereo not given) the results were LASV entry inh 3.7%, SARS PLP yeast 4.3%, 2A StopGo 0.5%, Marburg entry inh -14.8%, Cruzain inh noDet -5.6%, RE007 growth inh 46.9%, NS1 inh 10.9% and Cruzain inh Det 5.8%.
For O=C(CSc1ncccc1C(=O)O)NC1CCCCCCC1 the results were SARS PLP yeast 7.1%, 2A StopGo -12.5%, RE007 growth inh 4.1% and NS1 inh -0.2%.
`CCc1cc(CNC(=O)CC2C(=O)NCCN2CC2CCCCC2)on1` (stereo not given) gave LASV entry inh 8.3%, SARS PLP yeast 8.9%, 2A StopGo 8.8%, Marburg entry inh 19.5%[46.1 µM], RE007 growth inh 4.2% and NS1 inh -0.2%.
`Cc1cc(C(=O)COC(=O)c2ccc(CO)cc2)c(C)n1CC1COc2ccccc2O1` (stereo not given) gave LASV entry inh -14.4%, SARS PLP yeast 1.9%, 2A StopGo inconclusive, Marburg entry inh -33.3%, Cruzain inh noDet inconclusive, RE007 growth inh -11.7%, NS1 inh 9.6% and Cruzain inh Det -1.6%.
For O=C1NC(=O)C(=C2CCCCCC2)S1 the results were LASV entry inh 2.8%, SARS PLP yeast -5.3%, 2A StopGo -2.8%, Marburg entry inh inconclusive, Cruzain inh noDet 6.3%, RE007 growth inh -22.5%, NS1 inh -22.3% and Cruzain inh Det -0.9%.
For CCN(CC)S(=O)(=O)c1ccc(NCc2ccccn2)nc1 the results were SARS PLP yeast -0.2%, 2A StopGo 12.5%, RE007 growth inh 22.5% and NS1 inh 1.7%.

Screening results: PubChem BioAssay, National Center for Advancing Translational Sciences (NCATS)
